D2 ag: Beta-Arrestin HTS for Positive Allosteric Modulators of the Human D2 Dopamine Receptor: Agonists; activation, % (no concentration beside the values); actives 0.084% (n = 360,000); AID 624465, 2012; D(2) dopamine receptor (Homo sapiens), P14416; DiscoveRx PathHunter D2 beta-arrestin, luminescence, 90 min; 100% = 57 uM dopamine signal; in the data active = activation above about 40%; inconclusive = about 15% to 40%; inactive = below about 15%; also: compound concentration not given in the record; the text of the record calls up to 30% inactive
Target sequence (P14416 whole entry, looked up): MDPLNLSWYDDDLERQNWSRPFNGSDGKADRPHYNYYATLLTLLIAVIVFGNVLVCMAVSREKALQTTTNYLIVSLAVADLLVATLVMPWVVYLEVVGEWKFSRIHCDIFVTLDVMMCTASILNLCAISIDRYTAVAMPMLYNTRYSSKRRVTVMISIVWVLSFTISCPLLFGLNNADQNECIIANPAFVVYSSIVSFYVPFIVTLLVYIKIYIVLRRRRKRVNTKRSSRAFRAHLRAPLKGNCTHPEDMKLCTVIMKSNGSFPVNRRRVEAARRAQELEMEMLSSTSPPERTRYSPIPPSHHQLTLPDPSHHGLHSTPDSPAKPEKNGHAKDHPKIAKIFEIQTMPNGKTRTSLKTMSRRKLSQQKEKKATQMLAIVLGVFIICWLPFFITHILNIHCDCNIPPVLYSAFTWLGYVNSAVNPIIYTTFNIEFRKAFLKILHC
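Agonist mode: compounds alone added to overnight-plated D2 PathHunter cells for 90 min at 37 C, with 57 uM final dopamine (EC100) defining full response. Beta-arrestin recruitment detected by chemiluminescent reagent, read after 1 h at ambient temperature.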
TRPML1 agonist: qHTS for Agonists of the Human Mucolipin Transient Receptor Potential 1 (TRPML1); Mucolipin-1 (Homo sapiens), Q9GZU1; AID 624414, 2012; TRPML1-expressing cells, Ca2+ dye fluorescence, FDSS; host cell line not named in the record; reference of the full effect not given here; actives 0.12% (n = 410,000); activation, % (test concentration not listed); in the data active = activation above about 50%; inconclusive = about 30% to 50%; inactive = below about 30%; also: 0% is about no effect; the text of the record puts the active cut at 80%
Target sequence (Q9GZU1 whole entry, looked up): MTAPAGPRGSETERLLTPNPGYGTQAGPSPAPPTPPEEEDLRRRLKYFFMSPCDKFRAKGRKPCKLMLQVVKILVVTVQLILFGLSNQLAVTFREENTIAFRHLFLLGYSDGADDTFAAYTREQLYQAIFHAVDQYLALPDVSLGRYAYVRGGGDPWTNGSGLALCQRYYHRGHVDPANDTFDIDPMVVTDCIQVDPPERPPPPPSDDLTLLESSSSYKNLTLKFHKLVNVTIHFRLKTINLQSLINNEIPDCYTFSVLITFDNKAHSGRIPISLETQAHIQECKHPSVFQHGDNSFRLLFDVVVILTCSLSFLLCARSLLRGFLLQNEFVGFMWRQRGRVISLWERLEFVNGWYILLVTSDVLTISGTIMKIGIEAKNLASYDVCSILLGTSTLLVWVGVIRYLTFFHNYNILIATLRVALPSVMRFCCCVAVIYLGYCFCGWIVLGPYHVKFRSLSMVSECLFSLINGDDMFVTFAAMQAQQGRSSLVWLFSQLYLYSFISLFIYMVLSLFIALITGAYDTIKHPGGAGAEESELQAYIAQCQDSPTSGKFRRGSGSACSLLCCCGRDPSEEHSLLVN
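TRPML1-DL cells, Tet-induced overnight (~16 h, 37 degrees C), loaded 45-90 min at room temperature with Ca8 no-wash calcium dye plus quencher. FDSS fluorescence: 10 s baseline, compound pin-transfer, 110 s agonist read, then EC80 54-4 (4uM final) and 110 s antagonist read.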
Six1-Eya2 blk: qHTS Assay for Inhibitors of the Six1/Eya2 Interaction; AID 651725, 2012; actives 0.56% (n = 360,000); activity change, % (test concentration not listed); Homeobox protein SIX1 (Homo sapiens) + Protein phosphatase EYA2 (Homo sapiens), …; AlphaScreen GST-Six1/His-Eya2 binding, biochemical; stronger effect = lower value; control for the full effect not named in the record; in the data active = activity change below about -65%; inconclusive = about -30% to -65%; inactive = above about -30%; also: % is scaled to controls: 0 for no effect and ±100 for the full control effect; compound concentration not given in the record
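AlphaScreen with GST-Six1 and His-Eya2 (5X mix: 250 nM and 500 nM), glutathione donor and nickel acceptor beads; buffer 50 mM Tris pH 8.0, 300 mM NaCl, 1 mM TCEP; 1 h at 37 C in the dark.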
PINK1 expr mod: A Quantitative High throughput Screen to Identify Chemical Modulators of PINK1 Expression. PINK1 immunofluorescence, high-content cytometry, 24 h. Potency, µM (doses to about 76.6 µM), for inactives: at the highest dose activation (PINK1 increase), most hits filed as activators. actives 0.2% (n = 410,000); active = well fitted activation curve with a large enough effect; inconclusive = small, poorly fitted or top-dose-only effect; inactive = flat fitted curve, though single readings scatter; cell line not stated here;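 also: potency is read from the fitted curve at half-maximal effect; % of control where 0% means no effect; nearly all actives have a fitted effect of over 65% in size; a mitochondrial uncoupler was the plate control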
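Fluorescence from anti-PINK1 antibody, together with nuclear and cell stains, was scanned on a laser-scanning cytometer. Before staining, stable-line cells were incubated 24 hours with compounds at 5 concentrations; primary antibody 12 h at 10 degrees C.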
D2 potentiator: Beta-Arrestin HTS for Positive Allosteric Modulators of the Human D2 Dopamine Receptor: Potentiators; DiscoveRx D2 beta-arrestin cells, luminescence, 90 min; 100% = 57 uM dopamine signal; potentiation, % (test concentration not listed); actives 0.23% (n = 360,000); active = potentiation of 50% or more; inconclusive = 30% to 50%; inactive = 30% or less;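 also: compound concentration not given in the record; tested on top of an EC20 dose of dopamine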
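PathHunter beta-arrestin assay in DiscoveRx D2 cells. Compounds were added with an EC20 of dopamine (50 nM final) for 90 min at 37 deg C. Luminescence was read 1 h after detection reagent, with 57 uM dopamine as the EC100 control.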
TRPML1 inh: qHTS for Inhibitors of the Human Mucolipin Transient Receptor Potential 1 (TRPML1); TRPML1-inducible cells, Ca2+ dye fluorescence, FDSS; stronger effect = lower value; inhibition of EC80 agonist-evoked calcium signal; activity change, negative = inhibition, % (concentration not given with the values); AID 624415, 2012; actives 0.02% (n = 390,000); Mucolipin-1 (Homo sapiens), Q9GZU1; in the data active means activity change below about -50%; inconclusive means about -30% to -50%; inactive means above about -30%;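 also: stimulus is agonist 54-4 at its EC80 concentration; % is scaled to controls: 0 for no effect and ±100 for the full control effect; compound concentration not given in the record; the text of the record puts the active cut at -80%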
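TRPML1-DL cells, Tet-induced overnight (~16 h, 37 °C) at 1,500 cells/well, were loaded with Ca8 no-wash dye plus quencher for 45-90 min at room temperature. Compounds were pinned during FDSS kinetic reading; agonist 54-4 at EC80 (4 uM final) then added.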
Active calls of the source: *; ? = inconclusive; · = not tested or not shown; & = joins results of further samples; [ ] = remark or other dose.

Value order: Six1-Eya2 blk	TRPML1 inh	TRPML1 agonist	PINK1 expr mod	D2 potentiator	D2 ag
O=C(NC(=S)Nc1nc2c(s1)CSc1ccccc1-2)c1ccccc1
→ -4	6	0.5	-0.7%	-14	-2.9
CC(C)(C)C1CCc2c(sc3ncn(N)c(=N)c23)C1 (configuration not stated)
→ -7	-8	0.6	0.0%	-21	-6.2
O=C(COc1ccccc1[N+](=O)[O-])NCC1(N2CCOCC2)CCCCC1
→ 5	11	0.3	-0.7%	12	-1.8
CCN(CC)CCCOc1ccc(C)cc1Br
→ 0	0	-0.5	-1.1%	-31	-2.9
CC(=O)c1ccccc1NC(=O)COC(=O)c1cc(C)oc1C
→ -6	0	-0.6	7.1%	-11	4.4
Cc1sc(-c2ccncc2)nc1OC(=O)c1ccc(Cl)cc1
→ -3	-22	-0.7	-1.5%	18	-4.1
COc1ccc(/C=N/NC(=O)CN(C2=NS(=O)(=O)c3ccccc32)c2ccccc2)cc1
→ -1	-7	0.8	3.7%	-6	-7.1
CCc1ccccc1NC(=O)CCCn1c(=O)c2cccn2c2ccccc21
→ ·	27	2.3	4.0%	·	·
C=COCCNC(=O)C(=O)NCC(C)C
→ 4	4	0.0	0.9%	3	0.0
O=C(NNc1ccc([N+](=O)[O-])cc1)c1ccco1
→ 9	-8	-0.3	0.3%	-11	6.8
COCCN(C(=O)CNC(=O)c1ccco1)C(C(=O)NC1CCCC1)c1ccccc1 (configuration not stated)
→ 2	40	0.3	0.3%	-9	-3.3
CC(=O)N(CCCCN1C(=O)c2ccccc2C1=O)c1ccc(C)cc1
→ 2	-5	-1.3	-2.0%	-7	-1.7
COCCOc1nc2c(c(=O)n(C)c(=O)n2C)n1CCc1ccccc1
→ 0	-4	-1.1	-0.5%	6	0.2
CCc1cccc(NC(=O)C2CCN(S(=O)(=O)c3c(C)noc3C)CC2)c1
→ 2	-27	1.9	0.9%	-14	1.1
CCN(CC)S(=O)(=O)c1ccc(NC(=O)c2ccc(OCC3CCCO3)cc2)cc1 (configuration not stated)
→ -4	-14	1.1	2.8%	2	5.9
CN(C)c1ccccc1C(=O)N1CCCC(Nc2ccc(F)cc2)C1 (configuration not stated)
→ 0	12	0.2	-0.2%	-4	-1.2
O=C(NC(=S)Nc1ccc(CN2CCOCC2)cc1)c1ccco1
→ 4	-21	0.0	-0.4%	-12	-3.7
CSc1ccc(/C=C(/NC(=O)c2ccc(C)cc2)C(=O)Nc2cccc(C)c2)cc1
→ 9	17	0.6	-0.8%	-12	-1.9
CC1(C)C(C#N)=C(N)Oc2c1c(=O)oc1ccccc21
→ 1	22	-0.5	0.1%	-6	-1.9
C/C(=N/NC(=O)CNC(=O)c1ccncc1)c1ccco1
→ 5	-1	-0.1	-0.3%	-13	-2.9
O=C(NCc1cccc(Cl)c1)N1CCN(S(=O)(=O)c2ccccc2F)CC1
→ -20	-13	-0.4	-0.2%	2	0.4
O=C(Cc1csc(N2CCOCC2)n1)N/N=C/c1cccc(O)c1
→ -4	-1	1.2	-1.9%[38.3 µM]	-3	3.0
O=C(NCCCN1CCCC1=O)c1cccc(S(=O)(=O)Nc2ccc(Br)cc2)c1
→ 11	-4	0.1	0.9%	21	0.4
O=C(CSc1nccn(-c2cccc(F)c2)c1=O)Nc1ccc(Cl)cc1F
→ -2	7	-1.8	12%	-11	-5.0
CC(C)N1CCC(=NNC(=O)c2ccccc2[N+](=O)[O-])CC1
→ -4	28	-0.3	1.0%	3	-3.9
Nc1ccc(C(=O)O)cc1
→ 6&2&5	13&-1	-0.4&0.1	0.4%&-0.2%&0.1%	-8&2&-7	11&1.3&-4.0
O=C(c1ccccc1F)n1c2c(c3ccccc31)CCCC2
→ 3	6	1.0	16%	-15	-4.1
O=C(NCc1ccccc1)c1cccnc1
→ 9	36	-0.5	1.6%	-29	-4.5
CCCCn1c(SCC(=O)OC)nc2c1c(=O)n(C)c(=O)n2C
→ -1	5	1.5	4.5%[38.3 µM]	-5	2.1
C#CCC(NC(=O)c1ccc(C#N)cc1)C(=O)NCCC (configuration not stated)
→ 2	17	0.2	1.8%	-3	-1.3

Structures shown so far with bromine, in the order listed:
Value order: Six1-Eya2 blk	TRPML1 inh	TRPML1 agonist	PINK1 expr mod	D2 potentiator	D2 ag
CCN(CC)CCCOc1ccc(C)cc1Br
→ 0	0	-0.5	-1.1%	-31	-2.9
O=C(NCCCN1CCCC1=O)c1cccc(S(=O)(=O)Nc2ccc(Br)cc2)c1
→ 11	-4	0.1	0.9%	21	0.4

Arranged by value in D2 ag (highest first): three from the list above.
SMILES	Six1-Eya2 blk	TRPML1 inh	PINK1 expr mod	D2 potentiator	D2 ag
O=C(NNc1ccc([N+](=O)[O-])cc1)c1ccco1	9	-8	0.3%	-11	6.8
CC(C)N1CCC(=NNC(=O)c2ccccc2[N+](=O)[O-])CC1	-4	28	1.0%	3	-3.9
CC(C)(C)C1CCc2c(sc3ncn(N)c(=N)c23)C1 (configuration not stated)	-7	-8	0.0%	-21	-6.2

The main list resumes, starting 6 compounds before the break.
Value order: Six1-Eya2 blk	TRPML1 inh	TRPML1 agonist	PINK1 expr mod	D2 potentiator	D2 ag
CC(C)N1CCC(=NNC(=O)c2ccccc2[N+](=O)[O-])CC1
→ -4	28	-0.3	1.0%	3	-3.9
Nc1ccc(C(=O)O)cc1
→ 6&2&5	13&-1	-0.4&0.1	0.4%&-0.2%&0.1%	-8&2&-7	11&1.3&-4.0
O=C(c1ccccc1F)n1c2c(c3ccccc31)CCCC2
→ 3	6	1.0	16%	-15	-4.1
O=C(NCc1ccccc1)c1cccnc1
→ 9	36	-0.5	1.6%	-29	-4.5
CCCCn1c(SCC(=O)OC)nc2c1c(=O)n(C)c(=O)n2C
→ -1	5	1.5	4.5%[38.3 µM]	-5	2.1
C#CCC(NC(=O)c1ccc(C#N)cc1)C(=O)NCCC (configuration not stated)
→ 2	17	0.2	1.8%	-3	-1.3
CCCCC(=O)NC1(C(F)(F)F)C(=O)N(CC(C)C)C2=C1C(=O)CC(C)(C)C2 (configuration not stated)
→ 7	4	-0.3	?	-6	-1.7
COc1ccc(CNC(=O)C2(CC3CC(c4ccccc4)=NO3)CCNCC2)cc1 (configuration not stated)
→ -3	-7	0.1	0.3%	-10	-0.7
COC(=O)Cn1cnc2c(C#N)c3n(c2c1=O)CCCCC3
→ 5	-7	1.0	-0.3%[38.3 µM]	-5	1.4
COc1ccc(N(C)S(=O)(=O)c2ccc(Cl)c(C(=O)NCC(C)(C)N3CCOCC3)c2)cc1
→ -1	-9	1.4	0.3%	-15	-5.0
COC(=O)c1cnc(N)s1
→ -15	3	-0.1	-2.1%	-3	-4.3
CN(CCc1ccccc1)C(=O)c1ccc(NC(=O)Cc2cccc(NC(=O)C3CCN(C(=O)C4CCC4)CC3)c2)cc1
→ -8	-9	-0.5	-0.9%	·	-3.1
CCN(CC(=O)Nc1ccc(NC(C)=O)cc1)C(=O)CSC(=S)N1CCCC1
→ -2	-5	-0.9	-0.8%	4	-2.7
O=C(CCC(=O)Nc1ccccc1)N/N=C/c1ccc2c(c1)OCO2
→ 2	-12	-0.5	2.2%	6	-3.5
COc1ccc(-c2nnc(-c3ccc(C)cc3)o2)cc1
→ 15	8	-0.5	6.0%	2	-0.8
CCc1ccc2oc(-c3cccc(NC(=O)COc4ccccc4Cl)c3)nc2c1
→ ·	18	0.5	1.1%	·	·
CCOC(=O)C1CCN(C(=O)C2CCN(S(=O)(=O)N3CCCC3)CC2)CC1
→ -1	7	1.2	-0.4%[38.3 µM]	-5	-0.3
Cc1ccc(C(C)(O)CS(=O)(=O)Cc2ccccc2Cl)cc1 (configuration not stated)
→ -7	-21	1.7	-1.6%	-7	-2.0
C[C@@H]1O[C@@H](OC[C@H]2O[C@@H](Oc3cc(O)c4c(=O)cc(-c5ccc(O)c(O)c5)oc4c3)[C@H](O)[C@@H](O)[C@@H]2O)[C@H](O)[C@H](O)[C@H]1O
→ ?	-9	-0.7	0.9%	-31	-2.3
Cc1ccc(Nc2cc(C)nc3nncn23)c(C)c1
→ ·	11	-0.2	-2.1%	·	·
NC(=O)c1cn(-c2ccccc2)nc1-c1cc2ccccc2oc1=O
→ 0	-4	-1.1	3.2%	5	-1.5
O=C1c2ccccc2NC(c2ccc(F)cc2)N1Cc1ccccc1 (configuration not stated)
→ -1	-3	1.0	-0.2%	-8	-0.8
Cc1ccc(-c2nc3c(=O)n(-c4ccccc4)c4c(c(=O)n(C)c(=O)n4C)c3o2)cc1
→ 1	-7	-0.5	1.7%	-7	-1.6
CCCC12CN3CCN(CC(C3)/C1=N\NC(=O)c1ccc(C(C)(C)C)cc1)C2
→ 0	-10	0.1	-1.3%	-23	-1.6
C=C(C)CNC(=O)C1CCC(=O)N(CCCc2ccccc2)C1 (configuration not stated)
→ 7	-22	1.2	4.9%	-4	0.1
COc1ccccc1NC(=O)NS(=O)(=O)c1ccc(C)cc1
→ 2	-2	-0.6	0.5%	-3	0.8
Cc1ccc([N+](=O)[O-])cc1NC(=O)c1ccc(CSc2ccccc2)cc1
→ 3	8	2.4	?	-28	-1.2
CCCCOc1ccc(-c2nnc(N)s2)cc1
→ -2	12	1.0	6.3%	-5	-1.0
CCN(Cc1ccccc1)C(=O)COC(=O)c1cc(S(=O)(=O)Nc2c(C)n(C)n(-c3ccccc3)c2=O)ccc1C
→ 4	-1	0.5	3.4%	-4	1.0
CCOc1ccc(NC(=O)C(CC(=O)O)Cc2ccc(Br)cc2)cc1 (configuration not stated)
→ -6	-8	-0.4	-1.0%	2	0.9
Cc1cc(=O)n(Cc2cccc(F)c2)c2c1c(C)nn2-c1cccc(F)c1
→ ·	2	0.4	-0.3%	·	·

Assay outcomes as filed in PubChem.
